HIV TAR-Tat: TAR RNA-Tat peptide displacers, HIV-1, primary screen, biochemical, FRET, FAM/TAMRA-labeled Tat. 100,000 compounds, 0.6% hits. HIV-1 TAR RNA, Tat peptide displacement FRET; active compounds read high. AID 1259389, 2018. z-score (test concentration not listed);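 note: score is relative to mean and SD of negative controls; some compounds called inactive have numbers as strong as hits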
CDC25B CDK2 inh: primary biochemical HTRF screen for blockers of M-phase inducer phosphatase 2 binding to CDK2/cyclin A. 94,000 compounds, 0.72% hits. z-score (concentration not given with the values). P30305+P24941. AID 1259370, 2018. HTRF CDC25B-CDK2/CyclinA binding, anti-His/anti-Flag; active compounds read high;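 note: score is relative to mean and SD of negative controls; strong numbers were not always called active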
The depositor's hits bear a star; · = not tested or not shown.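 Rule for the calls: active = z-score from 3 up in half or more of its runs; inactive = the rest.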

Compound	HIV TAR-Tat	CDC25B CDK2 inh
COc1ccc(-c2noc(CN(C)S(=O)(=O)c3ccccc3)n2)cc1OC	0.21	1
Cc1cc(=O)n2[nH]c(NC(=O)c3cccnc3)nc2n1	-0.91	-1.4
Cc1ccc2oc(C(=O)Nc3nc4ccc(S(C)(=O)=O)cc4s3)cc(=O)c2c1	2.4	0.98
Cc1cc2ncn(C(C)c3ccccc3)c2cc1C (centres undefined)	1.2	-1.1
O=C(O)c1cccc(CSc2nnc(COc3ccccc3)o2)c1	2.2	-0.39
CC1(C)CC(=O)C2=C(C1)Nc1ccccc1NC2c1ccccc1Cl (centres undefined)	1.8	1
COC(=O)COc1ccccc1C1C(C(=O)OC)=C(C)NC2=C1C(=O)c1ccccc12 (centres undefined)	0.1	-1.2
CCn1c(SCC(=O)O)nc2ccccc21	0.09	-2.4
CCOC(=O)N1CCC(NS(=O)(=O)c2ccc3c(c2)NC(=O)CC(C)S3)CC1 (centres undefined)	0.82	·
CC1=C(C(=O)OC2CCCCC2)C(c2ccccn2)C2=C(CC(c3ccccc3)CC2=O)N1 (centres undefined)	1.2	-1.2
O=C1c2ccccc2S(=O)(=O)N1Cc1ccc(Cl)cc1	·	-0.12
CN1CCN(c2nc(NCCCN3CCOCC3)nc3c2cnn3C)CC1	-0.66	·
COc1ccc(-c2cc(C)nc3ncnn23)cc1	4.1	-0.71
Cn1c(=O)c(=O)n(C)c2cc(S(=O)(=O)N3CCN(c4ccc(F)cc4)CC3)ccc21	·	-1.1
Cc1ccc(CNc2c(-c3ccc(C(C)C)cc3)c(=O)c2=O)cc1	1.4	·
CC1=C(c2ccccc2)S(=O)(=O)NC1=O	-0.02	0.35
COc1ccc(S(=O)(=O)N2CCN(S(=O)(=O)c3ccc(C)cc3)CC2)cc1	·	-2.2
CC(c1ccccc1)N1COc2c(cc(Cl)c3cccnc23)C1 (centres undefined)	0.81	0.41
CC1CC(C)CN(c2nc(N3CCN(Cc4ccccc4)CC3)nc(N)c2[N+](=O)[O-])C1 (centres undefined)	0.08	·
CCc1nnc2c3ccccc3nc(NCc3ccc(F)cc3)n12	1.2	-1.4
CC(NC(=O)c1cc2ccccc2o1)C(=O)O (centres undefined)	·	-0.98
Cc1ccc(-c2cn3cccnc3n2)cc1NC(=O)c1ccc(Br)o1	·	1.8
COc1ccc(C2c3c(n[nH]c3C)CC(C)(O)C2C(C)=O)cc1OC (centres undefined)	·	-1
Fc1c(F)c(F)c(/C=N/Nc2nc(-c3ccccc3)cc(-c3ccccc3)n2)c(F)c1F	·	-2.2
N#Cc1cc([N+](=O)[O-])ccc1Oc1ccc2nonc2c1	·	-0.88
COc1ccc2nc(NC(=O)CCNC(=O)Cn3cnc4ccccc4c3=O)sc2c1	·	0.59
COC(=O)c1c(C)cc(=O)oc1C	·	0.45
CC1CCCCN1C(=O)c1cc(S(=O)(=O)N2CCCCC2)c[nH]1 (centres undefined)	5.4	·
COc1ccc(NS(=O)(=O)c2ccc3c(c2)[C@H]2C=CC[C@H]2[C@@H](c2cccc(OC)c2OC)N3)cc1	-0.17	3.4
CN(C(=O)C(C)(C)Oc1cc(C(F)(F)F)n(C)n1)c1ccccc1	·	-0.72
COc1cccc(-c2n[nH]c3c2C(c2ccc(O)c(OC)c2)NC3=O)c1 (centres undefined)	1.4	-0.37
Cc1ccc(N2C(=O)C3N=NN(Cc4ccccc4)C3C2=O)cc1C (centres undefined)	2	-0.91
CCCn1cc(S(=O)(=O)c2ccc(CC)cc2)c(=O)c2cc(F)c(N3CCN(CC)CC3)cc21	0.34	·
Cc1nnc2sc(-c3ccc4c(c3)OCCO4)nn12	-0.12	-0.77
O=C1N(Cc2ccccc2)c2ccccc2S(=O)(=O)N1c1cc(F)ccc1F	1.3	·
Cc1ccc(-c2nc3cccc(C)n3c2Nc2ccc(F)cc2)o1	·	1.2
C=CCNC(=O)Cc1coc2ccc3ccccc3c12	-0.94	-2
CC1(C)CC(=O)c2c(oc3cc(O)c(O)cc23)C1	·	-4.5
CN1C(C(=O)Nc2cccnc2)=CC(c2ccco2)=NS1(=O)=O	-0.38	-1.1
CCSc1nnc(NC(=O)c2cc(=O)c3ccc(C)cc3o2)s1	-1.8	-2.4
Cc1nc(S(=O)(=O)Nc2ccc(Cl)cc2)cn1C	2.1	·
O=C1Sc2ccc(S(=O)(=O)Nc3ccc(Br)cc3)c3cccc1c23	-0.26	-0.72
O=c1cc(CSc2n[nH]c(-c3ccccc3)n2)nc2sc(-c3cccs3)nn12	-0.93	·
CN1C(=O)c2cc(NC(=O)c3cc(-c4ccco4)nc4ccccc34)ccc2N2CCN=C12	0.2	·
Cc1ccc(S(=O)(=O)NCCc2nnc3ccc(SCc4cccc(Cl)c4)nn23)cc1	1.2	·
COC(=O)c1c(NC(=O)COc2ccc(Cl)cc2)sc2c1CCCC2	0.35	-1.5
COC(=O)C1=C(OC(=O)c2ccco2)c2ccccc2S(=O)(=O)N1C(C)C	1.2	0.01
Cc1ccc(CN(C(=O)Nc2ccccc2)c2ccccn2)o1	0.98	-0.46
O=C(NC1CC1)C1CCCN(c2nnc(N3CCCCC3=O)s2)C1 (centres undefined)	1.5	·
CCCSc1nc(=O)c2c(n1C)NC(=O)CC2c1ccc2c(c1)OCCO2 (centres undefined)	-0.38	-0.74
COc1ccc(S(=O)(=O)N2CCN(c3cc(N4CCCCC4)nc(C)n3)CC2)cc1OC	2	1.2
O=C(OCn1nnc2ccccc2c1=O)c1cccs1	·	-0.51
Cc1ccc(Nc2nc(N3CCOCC3)nc3c2cnn3C)cc1C	1.1	·
COC(=O)Cn1c(C2CC(=O)N(c3cc(Cl)ccc3OC)C2)nc2ccccc21 (centres undefined)	0.11	-1.2
CSc1ncc2c(=O)n(CC(=O)Nc3ccc(F)cc3)cnc2n1	2.8	·
COc1cc(NC(=O)Nc2nnc(N(C)C3CCCCC3)s2)cc(OC)c1	1.2	-1
CC(CCc1ccco1)NC(=O)c1nc(CS(=O)(=O)c2ccc(Cl)cc2)no1 (centres undefined)	0.43	·
O=C1C2N=NN(Cc3ccccc3)C2C(=O)N1c1cccc(Cl)c1 (centres undefined)	-0.8	-1.7
Cc1scc(CCNC(=O)Nc2ccc(Br)cc2F)c1C	0.22	·
COc1ccc(CCNC(=O)C2CCN(S(=O)(=O)c3cccs3)CC2)cc1OC	·	0.04

(cont.)
Compound	HIV TAR-Tat	CDC25B CDK2 inh
CCc1nnc2sc(-c3ccccc3OC)nn12	-1.6	-1.5
Cc1ccc(S(=O)(=O)NC(=O)Nc2c(-c3ccc(F)cc3)c(C(F)(F)F)nn2C)cc1	·	-1.9
Cc1ccc(C(=O)Nc2cnc3scnn3c2=O)cc1	0.62	1.4
O=C1C=C(S(=O)(=O)O)C2C=CC=CC2C1=O (centres undefined)	·	0.35
Cc1oc2ccccc2c1CC(=O)Nc1ccc(OC(F)(F)F)cc1	·	0.29
Cc1ccc2ccc(C(Nc3ccccn3)c3cccs3)c(O)c2n1 (centres undefined)	3.1	-1.8
CC1=C(c2ccc(F)cc2)S(=O)(=O)N=C1Nc1ccc(Br)cn1	2	·
Cc1nc2ccccc2c2oc(C(=O)NCC3COc4ccccc4O3)cc12 (centres undefined)	·	-1.9
C=CCOc1nc(N(C)C)nc(N2CCOCC2)n1	0.75	0.12
COc1ccc(OC)c(NC(=O)NC2(C(F)(F)F)Oc3ccc(Cl)cc3O2)c1 (centres undefined)	·	-1.2
Cc1ccccc1C1CC(=O)N2CN(c3ccccc3F)CSC2=C1C#N (centres undefined)	-1.2	5.1*
COc1cccc(CSc2nc(N)cc(N)n2)c1	0.87	0.25

In another format: 2 of the compounds above.
CC1=C(c2ccccc2)S(=O)(=O)NC1=O
  HIV TAR-Tat: -0.02 | CDC25B CDK2 inh: 0.35
COc1ccc(S(=O)(=O)N2CCN(S(=O)(=O)c3ccc(C)cc3)CC2)cc1
  HIV TAR-Tat: · | CDC25B CDK2 inh: -2.2

Complete entries from above.
Profile of COc1ccc(OC)c(NC(=O)NC2(C(F)(F)F)Oc3ccc(Cl)cc3O2)c1 (centres undefined) = HIV TAR-Tat = ·; CDC25B CDK2 inh = -1.2
Profile of Cc1ccc2ccc(C(Nc3ccccn3)c3cccs3)c(O)c2n1 (centres undefined) = HIV TAR-Tat = 3.1; CDC25B CDK2 inh = -1.8
Profile of Cc1ccc(S(=O)(=O)NC(=O)Nc2c(-c3ccc(F)cc3)c(C(F)(F)F)nn2C)cc1 = HIV TAR-Tat = ·; CDC25B CDK2 inh = -1.9

(next part)
Compound	HIV TAR-Tat	CDC25B CDK2 inh
CCOC(=O)c1sc2ccccc2c1S(=O)(=O)Nc1cc(OC)ccc1OC	-0.2	·
CC1=C(C(=O)OCC(=O)c2ccc(C)cc2)C2C=C(Br)C=CC2N=C1c1ccc(C)cc1 (centres undefined)	·	-3.4
Cc1nn2c(c1-c1ccccc1)N=C(c1ccco1)CC2c1ccco1 (centres undefined)	0.15	5.7
CCC(C)NC(=O)C1CCN(S(=O)(=O)c2ccc3c(c2)CC(C)N3C(C)=O)CC1 (centres undefined)	0.47	·
C=CCn1cnc2c(oc3nc4c(cc32)COC(C)(C)C4)c1=O	0.99	·
COC(=O)c1sccc1NC(=O)c1c(C)oc2ncnc(N3CCOCC3)c12	0.55	·
O=C(CSc1cn(CC(=O)N2CCCC2)c2ccccc12)Nc1ccc2c(c1)OCO2	-2.2	·
NC(=O)CSc1nccn(-c2cccc(Cl)c2)c1=O	0.75	·
O=C1Cc2cc(S(=O)(=O)NCc3ccncc3)cc3c2N1CCC3	0.16	·
CCCNc1sc(S(=O)(=O)CC)nc1S(=O)(=O)c1ccc(Cl)cc1	0.63	-5.6
COc1ccc(S(=O)(=O)N2CCCCC2)cc1Br	-0.91	0.09
Cc1nnc(N2C(=O)C(=O)/C(=C(/O)c3ccc(Cl)cc3)C2c2ccccc2F)s1 (centres undefined)	-3.2	-1.5
Cc1nc(N2CCN(C)CC2)cc(N2CCN(C(=O)Nc3cccc(F)c3)CC2)n1	0.67	-0.59
COc1ccc(-c2cc(OC(=O)c3ccc(Cl)cc3)c3c(C)oc(C)c3c(=O)c2)cc1	-0.61	0.43
c1ccc(-c2nnc3sc(CN4CCC5(CC4)OCCO5)cn23)cc1	·	0.82
C#CCOC(=O)CCCC(=O)Nc1nc2ccccc2s1	·	-1.5
CCCCc1[nH]nc2c1C1(CCN(CC)CC1)C(C#N)=C(N)O2	-3.2	0.31
Clc1ccccc1-c1nnc(-c2ccccc2Cl)o1	0.02	-1.1
COc1ccc(C2C(C#N)=C(N)OC3=C2C(=O)CC(C)(C)C3)cc1COc1ccc(F)cc1 (centres undefined)	·	0.4
CCn1c(OC)nc2c1c(=O)n(C)c(=O)n2C	-1.1	-2.9
O=C(NNc1nc(-c2cccs2)ns1)c1cccc(C(F)(F)F)c1	·	-2.6
O=C1C(c2ccccc2)N=C2c3ccccc3N=C(SCc3cc(=O)n4ccccc4n3)N12 (centres undefined)	·	-1.5
C=C1C(C2(C)C=CC(=O)C(C)(C)C2CC(=O)OC)CC[C@@]2(C)[C@H](c3ccoc3)OC(=O)C3OC132 (some centres undefined)	0.2	·
COc1cc(OC)cc(N2C(=O)N(C)c3ccccc3S2(=O)=O)c1	1.8	·

The last 4 records of the part before are carried over, then new ones follow:
Compound	HIV TAR-Tat	CDC25B CDK2 inh
O=C(NNc1nc(-c2cccs2)ns1)c1cccc(C(F)(F)F)c1	·	-2.6
O=C1C(c2ccccc2)N=C2c3ccccc3N=C(SCc3cc(=O)n4ccccc4n3)N12 (centres undefined)	·	-1.5
C=C1C(C2(C)C=CC(=O)C(C)(C)C2CC(=O)OC)CC[C@@]2(C)[C@H](c3ccoc3)OC(=O)C3OC132 (some centres undefined)	0.2	·
COc1cc(OC)cc(N2C(=O)N(C)c3ccccc3S2(=O)=O)c1	1.8	·
Cc1cc(NC(=O)NCCNc2ncccc2C(F)(F)F)c(C(F)(F)F)o1	·	0.29
COc1ccc(C(=O)/C(C#N)=C/c2ccc(O)cc2)cc1	·	-1.7
CC(C)CCn1c(C(C)N2CCCCC2)nc2ccccc21 (centres undefined)	-0.69	-1.8
CC(C)Cc1nc2sc3c(NCCN4CCOCC4)ncnc3c2c2c1COC(C)(C)C2	1	0.14
CCOC(=O)C1CCCN(c2c(S(=O)(=O)c3ccc(OC)cc3)cnc3ccc(OC)cc23)C1 (centres undefined)	-1.1	-0.08
Cc1c2cnn(-c3ccccc3)c(=O)c2c(C)n1C(C)C(=O)Nc1cccc(F)c1 (centres undefined)	1.2	0.55
O=C(Nc1ccc2oc(-c3ccc(F)cc3)nc2c1)c1ccc2c(c1)OCCO2	·	-2.6
NS(=O)(=O)c1ccc2nc(NC(=O)c3ccccn3)sc2c1	0.91	·
Clc1ccc2nc(SCCOc3ccccc3)[nH]c2c1	2.7	-2.5
O=C(c1ncoc1-c1ccco1)N1CCCCC1	-0.21	·
COc1cccc(-c2csc(-c3c(N)c(C(=O)c4ccc5c(c4)OCO5)n4ccccc34)n2)c1	3.3	-2.7
Clc1ccc2nc(N3CCCCC3)nc(-c3ccccc3)c2c1	0.81	-1.5
Nc1nc2ccccc2n1CCOc1ccccc1Cl	-0.08	0.27
CCOc1ccc(S(=O)(=O)Nc2ccc3oc(C)c(C(=O)OCCOC)c3c2)cc1	2	-1.1
Cc1sc2ncn3nnnc3c2c1-c1ccc(Cl)cc1	·	-0.95
